Screens deposited in PubChem by National Center for Advancing Translational Sciences (NCATS).
RE007 growth inh = less growth of the S. pombe RE007 Vpr strain; S. pombe RE007 Vpr strain, BacTiter-Glo ATP luminescence, 24 h; control for the full effect not named in the record; 360,000 tested, 0.21% active; Potency, µM (series often up to 92.2 µM), inactives show at the top dose activity change, negative = less growth; active = well fitted falling curve with a large enough effect; inconclusive = small, poorly fitted or top-dose-only effect; inactive = no such curve, though single readings can be large or run the other way;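 further: on the % scale 0 is the no-effect control and ±100 the full control effect; nearly all actives have a fitted effect of over 50% in size; the assay follows cell death caused by Vpr and the record does not say whether a fall means rescue or toxicity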
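Fission yeast strain RE007, carrying one chromosomally integrated HIV-1 vpr copy, was seeded at OD 0.01 in PMG+AL medium with 23 nL pinned compound. After 24 h at 30 °C and 99% humidity, viability was read by BacTiter-Glo luminescence.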
NS1 function inh = blocks influenza NS1 protein function; 270,000 tested, 0.4% active; Potency, µM (series often up to 46.1 µM), for inactives: at the top dose activity, positive = more growth; S. cerevisiae slowed by influenza A NS1, growth recovery by OD600; AID 2326; active means well fitted rising curve with a large enough effect; inconclusive means small, poorly fitted or top-dose-only effect; inactive means no such curve, though single readings can be large or run the other way; further: nearly all actives have a fitted effect of over 50% in size
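Read-out: OD600 growth recovery of NS1-expressing budding yeast. Cells grown overnight at 30C in -URA glucose medium, washed, resuspended and diluted 1:100 in 2% galactose assay medium, pH 6.0. Same strain lacking NS1 served as positive control.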
Marburg entry inh = Marburg virus entry inhibition; Potency, µM (highest dose often 37.8 µM), inactives show top-dose activity change, negative = inhibition, actives largely listed as inhibitors; 300,000 tested, 1.8% active; Marburg virus pseudotyped entry inhibition, cell reporter; control for the full effect not named in the record; about a third of the inactives were read at about 46 µM; active = well fitted inhibition curve with a large enough effect; inconclusive = small, poorly fitted or top-dose-only effect, or effect the other way; inactive = flat fitted curve, though single readings scatter; tested in HEK293 cells; about a fifth of its hits are not listed in these tables; further: on the % scale 0 is the no-effect control and ±100 the full control effect; luciferase read-out
2A StopGo = lowers the luciferase signal of an FMDV 2A StopGo reporter | human cells with a luciferase reporter of 2A StopGo recoding; control for the full effect not named in the record | Potency, µM (series often up to 57.9 µM), for the others: at the highest dose signal change, negative = less light | 410,000 tested, 1.2% active; active = well fitted falling curve with a large enough effect; inconclusive = small, poorly fitted or top-dose-only effect; inactive = no such curve, though single readings can be large or run the other way; tested in HEK293T cells; further: on the % scale 0 is the no-effect control and ±100 the full control effect; nearly all actives have a fitted effect of over 45% in size; luciferase light after 4 h
Cruzain Triton = cruzain (T. cruzi) inhibition with detergent; Potency, µM, for the others: max response, negative = inhibition, most hits filed as inhibitors; 200,000 tested, 0.43% active; P25779; purified cruzain, Z-FR-AMC fluorescence, 0.01% Triton;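 further: plate controls were neutral wells for no effect and buffer without enzyme for full effect; nearly all actives have a fitted effect of over 40% in size; top concentration of the series not given in the record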
Target sequence (P25779 123-467 limits assumed): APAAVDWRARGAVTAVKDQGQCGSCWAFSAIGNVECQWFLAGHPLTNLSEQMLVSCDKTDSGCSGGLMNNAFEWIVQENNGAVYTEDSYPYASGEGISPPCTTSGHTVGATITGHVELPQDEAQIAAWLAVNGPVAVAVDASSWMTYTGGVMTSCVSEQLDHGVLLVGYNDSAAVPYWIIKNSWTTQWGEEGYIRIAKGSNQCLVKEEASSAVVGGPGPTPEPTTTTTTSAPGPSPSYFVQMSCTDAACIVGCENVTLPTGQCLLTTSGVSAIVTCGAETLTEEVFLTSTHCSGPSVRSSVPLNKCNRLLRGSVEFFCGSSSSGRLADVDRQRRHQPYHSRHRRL
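Cruzain (1.5 nM) preincubated 15 min at RT with compound in 100 mM sodium acetate pH 5.5, 5 mM DTT, 0.01% Triton X-100. Reaction started with 2 uM Z-FR-AMC; AMC fluorescence (ex 360/em 450 nm) change over 60 s gave rate.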
Lassa entry inh = inhibitors of Lassa virus binding or cell entry. Lassa virus pseudotype entry inhibition, cell reporter; control for the full effect not named in the record. Potency, µM (top dose mostly 37.9 µM), for inactives: at the highest dose activity change, negative = inhibition, actives largely listed as inhibitors. 300,000 tested, 1.2% active. AID 540256; active means well fitted inhibition curve with a large enough effect; inconclusive means small, poorly fitted or top-dose-only effect, or effect the other way; inactive means flat fitted curve, though single readings scatter; tested in HEK293 cells; further: on the % scale 0 is the no-effect control and ±100 the full control effect; nearly all actives have a fitted effect of over 50% in size; luciferase read-out
Cruzain noTriton = blocks cruzain activity in detergent-free assay; 200,000 tested, 2.3% active; Potency, µM, for the others: max response, negative = inhibition, most hits filed as inhibitors; purified cruzain, Z-FR-AMC fluorescence, no detergent; P25779;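 further: plate controls were enzyme without inhibitor for no effect and buffer without enzyme for full effect; nearly all actives have a fitted effect of over 40% in size; top concentration of the series not given in the record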
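Detergent-free condition (0.00005% Triton X-100) in acetate buffer pH 5.5 with DTT. 1.5 nM enzyme and compound were pre-mixed 15 min, then 2 uM Z-FR-AMC substrate added; reaction progress from fluorescence change between first and third reads (60 s).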
SARS PLP yeast = SARS-CoV PLP inhibition in yeast; S. cerevisiae expressing SARS-CoV PLpro, growth rescue; control for the full effect not named in the record; Potency, µM (highest dose often 32.9 µM), for the others: top-dose activity, positive = growth rescue; 330,000 tested, 0.19% active; active means well fitted rising curve with a large enough effect; inconclusive means small, poorly fitted or top-dose-only effect; inactive means no such curve, though single readings can be large or run the other way; further: 0% is about no effect; nearly all actives have a fitted effect of over 55% in size; growth read by luminescence after 48 h
An asterisk follows results filed as active; ? = inconclusive; . = not tested or not shown; & = joins results of further samples; [ ] = remark or other dose. Unless noted, the call rests on the fitted dose curve; in most records, active means well fitted curve in the direction sought with a large enough effect; inconclusive means small, poorly fitted or top-dose-only effect, or another doubt; inactive means no such curve, though single readings can be large; an effect the other way counts as inactive or inconclusive. Potency means the concentration at half of the fitted maximal effect.

Sequence of screens: RE007 growth inh, NS1 function inh, Marburg entry inh, 2A StopGo, Cruzain Triton, Lassa entry inh, Cruzain noTriton, SARS PLP yeast
- CC(C)C(NC(=O)COc1ccc2ccccc2c1)C(=O)N/N=C/C=C/c1ccccc1 (configuration not stated)
 : 8.6%, -3.0%, ?, 9.1%, 3.1%, 0.5%, -28.2%, 11.3%
- Cc1cc(C)c2c(CC(=O)N(Cc3ccc(N(C)C)cc3)Cc3ccco3)coc2c1
 : ., ., 9.6%[46.1 µM], ?, -10.0%, -9.9%[46.1 µM], ?, .
- Cc1cccc(NC(=O)CCc2nc3sc4c(c3c(=O)[nH]2)CCCC4)c1
 : 0.1%, ., ?, 5.4%, ., ?, ., .
- CC(=O)N1CCCc2cc(S(=O)(=O)N3CCCC3)ccc21
 : 6.5%, 6.7%, ., -13.7%, ., ., ., 6.7%
- C=CCn1cc(C(=O)N2CCN(C)CC2)c(=O)c2cc(S(=O)(=O)N(CC)CC)ccc21
 : -1.0%, 8.7%, ?, -7.0%, ., 20.8%[46.1 µM], ., -1.3%
- CN(C(=O)NCc1noc2ccccc12)c1cccc(Cl)c1
 : ., ., ., -4.1%, -3.2%, 12.0%[46.1 µM], -7.5%, .
- O=C(N=Nc1c(O)[nH]c2ccccc12)c1ccc(CN2CCOCC2)cc1
 : -14.4%, ., -22.2%[46.1 µM], 5.4%, ., -18.9%[46.1 µM], ., 0.2%
- O=C(NC(=S)Nc1cccc2cccnc12)c1cccs1
 : 9.3%, 2.0%, ., 28.2%, ., ., ., 0.5%
- Brc1ccc2nc(-c3cccs3)c(NCC3CCCO3)n2c1 (configuration not stated)
 : -20.3%, -10.2%, ., 4.8%, ., ., ., -3.5%
- COc1cccc(-n2c(=O)c3c4c(sc3n(Cc3ccc(C)cc3)c2=O)CCCC4)c1
 : ., ., -22.8%[46.1 µM], ?, -0.6%, -1.3%[46.1 µM], -3.4%, .
- COc1ccc(C(C#N)N2N=C(C)CC2(C)C)cc1OC (configuration not stated)
 : -1.4%, 23.5%, 25.1%, -6.7%, 0.2%, -8.9%, 18.9%, 3.9%
- CC(=O)C1=C(C)NC(SCC(N)=O)=C(C#N)C1c1cccs1 (configuration not stated)
 : -3.1%, -1.4%, 8.0%, ., 0.2%, 12.6%, -9.4%, .
- Cc1nc(CN(C)C(=O)c2cc(COc3c(F)cccc3F)on2)cs1
 : -4.9%, -3.1%, 2.5%[46.1 µM], 31.2%[activator], ., 4.0%, ., 0.8%
- Cc1ccc(-n2c(Cc3cccn3C)nnc2SCC(=O)N2CCc3ccccc32)cc1
 : -3.6%, 7.94µM*, ?, 8.7%, -2.6%, -19.3%[14.3 µM], ?, -3.6%
- COc1ccc([C@H]2[C@H]3C=CC[C@@H](C)[C@@H]3C(=O)N2Cc2ccccc2)cc1Cl
 : 4.1%, -60.6%, ., -28.4%, ., ., ., -11.6%
- Cc1nc(C(F)(F)F)ccc1C(=O)Nc1ccc2ccccc2n1
 : -14.4%, -2.2%, -3.2%[46.1 µM], 10.2%, ., 3.5%[46.1 µM], ., -1.3%
- Cc1ccc(CNC(=O)C2CCC(=O)N(Cc3cccc(C(F)(F)F)c3)C2)o1 (configuration not stated)
 : 8.7%, ., 15.0%, 23.0%, ., -1.4%, ., .
- CCOC(=O)c1[nH]c2ccccc2c1NC(=O)c1ccc2c(c1)OCO2
 : 7.6%, -2.6%, ., -1.8%, 3.5%, ., ?, 8.4%
- COc1ccc(C(=O)c2c[nH]c(C(=O)NCc3cccs3)c2)cc1
 : -12.2%, 11.5%, -18.1%, 28.5%, 3.9%, -3.4%, ?, -0.5%
- CCN(CC)c1nc(-c2ccccc2)cc(C(F)(F)F)c1C#N
 : -2.8%, 0.2%, 3.4%, -27.4%, -5.1%, -10.2%, -2.7%, 4.5%
- Cc1ccc(S(=O)(=O)N[C@@H](Cc2ccccc2)C(=O)N2CCC(C(=O)N[C@@H](CC(C)C)C(=O)O)CC2)cc1
 : 0.9%, 3.6%, 6.5%, -2.5%, ., ?, ., 0.5%
- S=C(NCc1ccco1)N/N=C/c1ccc(Cl)cc1
 : ., 17.0%, -9.9%, 3.6%, -13.6%, 4.61µM*, -18.1%, ?
- Cc1cc(C)cc(N(C(=O)c2ccc3c(c2)OCO3)C2C=CS(=O)(=O)C2)c1 (configuration not stated)
 : 11.6%, -6.4%, -5.0%, ., 7.8%, ?, 6.5%, 0.4%
- CC(=O)N1CCN(c2ccc(NC(=O)c3ccc(F)cc3)cc2)CC1
 : -1.5%, 9.6%, ., 30.4%[activator], ., ., ., 4.3%
- CCc1nc(N2CCCCC2C(=O)O)c2oc3ccccc3c2n1 (configuration not stated)
 : 2.2%, -3.9%, -1.3%[46.1 µM], -8.4%, ., 4.1%[46.1 µM], ., 0.5%
- CCOc1ccc(-n2cc(-c3ccccc3)c3c(N4CCOCC4)ncnc32)cc1
 : -9.7%, -36.0%, ?, ?, ., ?, ., -1.2%
- CC(C)[C@H](NC(=O)c1ccccc1Cl)C(=O)Nc1nc(-c2ccccn2)cs1
 : 7.0%, -38.4%, ?, ?, ., ?, ., -2.4%
- COC(=O)c1ccc(NC(=O)CO/N=C2\CCCc3nonc32)cc1
 : 5.8%, ., ?, ?, ., 7.3%, ., 1.3%
- COc1cc(/C=C/C(=O)OCC(=O)NC(=O)NC(C)C)ccc1O
 : -13.4%, -0.8%, ., -3.0%, ., ., ., -0.3%
- C/C=C/Cn1c(SC)nc2c1c(=O)[nH]c(=O)n2C
 : 12.6%, -8.1%, 2.7%, -21.6%, 4.7%, -0.4%, 5.0%, 6.2%
- CCCCNC(=O)CN(c1cccc(F)c1)S(C)(=O)=O
 : 3.7%, 4.6%, -1.7%[46.1 µM], -19.8%, -0.5%, 2.1%, 19.0%, -6.5%
- O=C(c1ccc(CS(=O)c2ccccc2Cl)o1)N1CCN(c2ccccn2)CC1 (configuration not stated)
 : -15.4%, -10.8%, ., -27.1%, ., ., ., 3.0%
- O=C(NCc1ccc2c(c1)OCO2)C1(S(=O)(=O)c2ccccc2)CC1
 : -8.5%, 3.2%, 6.2%, -16.8%, -0.4%, 3.2%, 5.2%, 1.7%
- CCc1ccccc1NC(=O)C1c2ccccc2Oc2ccccc21
 : -10.0%, 9.9%, -5.8%, -4.0%, -1.6%, 0.0%, 25.1µM*, -1.5%
- O=C(COc1ccc(Cl)cc1)Nc1nnc2n1CCS2
 : ., ., ., -3.7%, 1.5%, 13.8%[46.1 µM], 13.1%, .
- O=C(O)CN1CCN(C(c2ccccc2)c2ccccc2)CC1
 : 6.0%, 8.6%, -0.6%[46.1 µM], -5.7%, ., 1.7%[46.1 µM], ., 3.8%
- O=C(COc1ccc(Cl)cc1)NNC(=O)C(=O)NC1CCCCC1
 : -9.6%, -2.7%, 24.4%, -24.1%, ., 8.8%, ., -0.3%
- Cc1ccc(-n2nnnc2SCC(=O)Nc2cccnc2Cl)cc1
 : 0.7%, 5.1%, ?, ?, -1.5%, -27.1%, -6.4%, 11.8%
- COc1ccc(N/C=C(/C(C)=O)c2ccccc2)cc1
 : -8.0%, 5.2%, 6.3%, 2.4%, -4.2%, -20.2%, -19.4%, -8.4%
- CC(=O)N1CCN(c2ncnc3ccccc23)CC1
 : 18.4%, 9.8%, 9.7%[46.1 µM], -7.1%, ., ?, ., 19.3%
- COc1ccccc1CNC(=O)C(=O)NCCC1CCCCN1S(=O)(=O)c1ccccc1 (configuration not stated)
 : -19.8%, ., -14.4%, ?, ., -21.4%, ., .
- O=C(/C=C/c1cccc([N+](=O)[O-])c1)NC(=S)Nc1ccc(CN2CCOCC2)cc1
 : 0.0%, -1.8%, 3.0%, ?, -15.3%, ?, ?, 3.1%
- Cc1ccc(CNC(=O)C(OC(=O)c2ccco2)C(C)C)cc1 (configuration not stated)
 : 1.6%, -12.2%, 14.8%, 13.3%, -1.9%, 29.1%[14.3 µM], -6.6%, 3.0%
- Cc1ccc(S(=O)(=O)NC(=O)COc2cc(C)ccc2C(C)C)cc1
 : 6.7%, -25.2%, 13.1%[46.1 µM], -17.8%, ., ?, ., -2.0%
- Cc1c(C(=O)NCCN2CCOCC2)oc2ccc(S(=O)(=O)N3CCCCCC3)cc12
 : -1.4%, -8.2%, -12.4%&-12.4%[46.1 µM], -4.8%, 0.8%, -23.2%, -2.6%, 8.0%
- COc1ccc(C(=O)Nc2cnn(Cc3c(F)cccc3Cl)c2)cc1OC
 : -11.4%, -12.0%, ., 1.3%, ., ., ., 0.3%
- Cc1ccc(-n2c3c(c(=O)[nH]c2=S)C(C(F)(F)F)(C(F)(F)F)NC(=O)N3)cc1
 : 2.6%, -3.4%, ?, 37.1%, 3.4%, -13.9%, 2.1%, -2.0%
- CC(C)(C)c1nnc(NC(=O)Cc2ccccc2[N+](=O)[O-])s1
 : 1.3%, 4.9%, 31.0%, -11.7%, -0.5%, -15.0%, -9.6%, -9.0%
- O=C1CS(=O)(=O)C2(C(=O)N(Cc3ccccc3Cl)c3ccccc32)N1c1ccc(F)cc1 (configuration not stated)
 : ., ., ., -27.8%, -3.5%, -13.5%[46.1 µM], 2.51µM*, .
- COc1ccccc1NC(=O)CSc1nnc(-c2ccccc2)o1
 : -3.5%, -53.6%, ., 11.3%, -4.1%, ., -15.4%, 1.1%
- CCCC(=O)Nc1c(-c2ccccc2)c(=O)c(C)nn1-c1ccc(Cl)cc1
 : 10.1%, 9.1%, 9.6%[46.1 µM], -5.7%, 0.0%, -2.6%, 4.7%, 15.3%
- COc1cccc(NC(=O)COC(=O)c2ccco2)c1
 : -16.5%, -6.5%, -3.0%, 3.0%, -4.2%, -0.5%, 6.7%, -2.4%
